Source: PubChem (several laboratories)
YopH inh: blocks Yersinia enterocolitica YopH tyrosine phosphatase | inhibition, %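 (about 10 µM by stock and volumes)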 | fluorescence Ex485/Em525 | AID 898 | 140,000 tested, 0.16% active;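 active = inhibition of 50% or more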;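 also: controls were vehicle for no effect and minimum signal wells for full effect; inactives centre near -20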
Arbovirus inh: arbovirus infection inhibition; 200,000 tested, 0.37% active; AID 1251; arbovirus infection cell-based antiviral screen; inhibition, % at 10 µM;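 active = inhibition from about 30%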;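 also: bluetongue infection of BSR cells; cell survival read as ATP light after 72 h; 0% = infected wells without compound and 100% = uninfected wells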
Mtb betalactam: beta-lactam sensitization of Mtb H37Rv. M. tuberculosis H37Rv growth with meropenem, percent inhibition; hits of this screen are not shown here. inhibition, % at 25 µM. 330,000 tested, 0.27% active. AID 434955;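 active = about 74% or more and at least 40 points above the plate without the antibiotic, then above 30% in a dose series; inconclusive = first-round hits that could not be retested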;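 also: growth measured after seven days incubation then overnight dye step; 0% = bacteria only wells and 100% = bacteria with antibiotic; twin plates without the antibiotic show which effects depend on it; some results filed as inactive read as strong as hits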
RecA splice inh: inhibitors of M. tuberculosis RecA intein splicing; 290,000 tested, 0.75% active; inhibition, %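 (about 9 µM by stock and volumes)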; cell-free RecA intein splicing, fluorescence; P9WHJ3; AID 2221; in the data active = inhibition above about 30%; inconclusive = no clear call, values can overlap the other calls;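 also: 0% = vehicle wells and 100% = reference inhibitor control wells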
Target sequence (P9WHJ3 whole entry, looked up, canonical isoform): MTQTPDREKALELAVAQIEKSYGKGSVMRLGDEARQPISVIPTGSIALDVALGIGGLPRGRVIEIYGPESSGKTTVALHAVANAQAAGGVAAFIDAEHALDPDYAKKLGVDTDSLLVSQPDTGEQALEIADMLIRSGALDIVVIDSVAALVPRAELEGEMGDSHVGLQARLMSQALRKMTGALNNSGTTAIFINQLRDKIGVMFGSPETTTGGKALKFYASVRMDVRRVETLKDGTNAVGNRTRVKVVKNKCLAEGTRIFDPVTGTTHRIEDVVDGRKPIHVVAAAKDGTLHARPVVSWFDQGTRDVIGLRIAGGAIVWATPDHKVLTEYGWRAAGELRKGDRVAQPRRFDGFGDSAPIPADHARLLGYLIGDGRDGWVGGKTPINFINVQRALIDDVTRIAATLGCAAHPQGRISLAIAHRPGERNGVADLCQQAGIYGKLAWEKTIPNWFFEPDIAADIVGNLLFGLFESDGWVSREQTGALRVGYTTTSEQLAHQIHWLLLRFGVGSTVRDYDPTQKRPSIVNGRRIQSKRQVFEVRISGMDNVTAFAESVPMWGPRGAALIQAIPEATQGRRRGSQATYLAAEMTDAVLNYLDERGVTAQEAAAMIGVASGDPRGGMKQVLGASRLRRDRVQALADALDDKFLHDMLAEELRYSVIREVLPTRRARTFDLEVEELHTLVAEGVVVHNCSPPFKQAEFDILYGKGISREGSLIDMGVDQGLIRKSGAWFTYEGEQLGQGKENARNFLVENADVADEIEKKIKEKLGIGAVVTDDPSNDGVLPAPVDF
Mtb H37Rv: M. tuberculosis H37Rv growth inhibitors, H37Rv strain (AID 1626). 220,000 tested, 0.95% active. inhibition, % at 10 µM, or IC50 in µM where a hit was titrated. M. tuberculosis H37Rv growth inhibition; higher % means a stronger effect;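 active = confirmed in a dose series; inconclusive = inhibition above 80% but not taken into the dose series; inactive = below 80% or under 30% at every dose of the series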;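 also: bacteria incubated seven days before Alamar blue readout; 0% = bacteria only wells and 100% = bacteria with antibiotic wells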
Arbovirus inh repeat: also measured in Arbovirus inh; calls as there; inhibition, %; measured here: 10K subset replicate screen; many hits read low in the repeat;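 first of two repeat runs on a subset; 0% = infected and 100% = uninfected wells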
An asterisk follows results filed as active; ? = inconclusive; nt = no result given; & = joins results of further samples. This is a subset. The share of hits here may be higher or lower than overall.

SMILES | YopH inh | Arbovirus inh | Mtb betalactam | RecA splice inh | Mtb H37Rv | others
CCCC[C@@H]1C[C@H]1[C@@H](NC(=O)c1ccco1)c1ccc(Cl)cc1 | -23 | -13 | 21 | 6.4 | 4%
COC(=O)Cn1cnc2sc(C)c(S(=O)(=O)N3CCC(C)CC3)c2c1=O | 26 | 7 | -6 | -0.5 | 2%
O=C1CC(=O)C(n2cncn2)C(c2ccc(Cl)cc2)C1 (configuration not stated) | -44 | 3 | 6 | -0.2 | 0%
CC1CCN(C(=O)Cn2nnc(-c3ccc([N+](=O)[O-])cc3)n2)CC1 | nt | nt | 4 | -2.6 | nt
CC(C)CCN1CC(O)=C(c2nc3ccccc3[nH]2)C1=N | -13 | -7 | nt | -0.7 | -2%
CCC1CCCCN1CCCNC(=O)Cn1ncn2nc(-c3ccc(OC)cc3)cc2c1=O (configuration not stated) | nt | nt | ? | -4.0 | nt
CCC(C)c1c(O)nc(SCC(=O)Nc2ccccc2)[nH]c1=O (configuration not stated) | -33 | 2 | -1 | -1.0 | -5%
Cc1c(C(=O)NCCCn2ccnc2)oc2ccccc12 | nt | -1 | -3 | 3.7 | 3%
COc1cc(CNCCO)cc(Br)c1OCc1ccccc1Cl | -35 | -39 | nt | 1.7 | nt
CS(=O)(=O)Nc1ccc(C2=NN(C(=O)c3ccco3)C(c3cccc(F)c3)C2)cc1 (configuration not stated) | nt | -8 | 3 | 0.9 | 4%
O=c1c(Cc2c(F)cccc2Cl)c(O)ccn1Cc1ccc(F)cc1 | nt | -2 | 4 | 3.5 | 10%
COc1cc(Cl)ccc1OCc1cc(C(=O)N(C)C2CCOC2)no1 (configuration not stated) | nt | nt | -1 | 0.4 | nt
COCCNC(=O)C(=O)NCC(c1ccc2c(c1)OCO2)N1CCN(c2ccc(F)cc2)CC1 (configuration not stated) | nt | nt | 6 | 0.1 | nt
CC(NS(C)(=O)=O)C(c1cccs1)N1CCN(c2ccccc2F)CC1 (configuration not stated) | -8 | 4 | 9 | -3.3 | -8%
COc1cccc(NC(=S)NCc2cccs2)c1 | -33 | -3 | 3 | -24 | 7%
Cc1cccc(NC(=O)CN2C(=O)S/C(=C\c3ccc(O)c([N+](=O)[O-])c3)C2=O)c1 | nt | -11 | 5 | 0.3 | -6%
COc1ccc(S(=O)(=O)N2CCOCC2)cc1NC(=O)c1cc2c(s1)CCCC2 | -28 | 19 | -6 | 9.7 | 13%
CC(=O)Nc1ccc(CN2CCCC(C(=O)c3cccc(C(F)(F)F)c3)C2)cc1 (configuration not stated) | nt | -1 | 2 | 0.7 | 7%
Cc1nn(C(=O)N2CCOCC2)c(C)c1CN1C(=O)c2ccccc2C1=O | -29 | nt | 0 | nt | 3%
Cc1ccc(C(=S)N2CCN(Cc3ccccc3)CC2)s1 | nt | 14 | 1 | 3.2 | -6%
CC1CCCN(C(=O)NC2CC(=O)N(c3ccc4c(c3)OCCO4)C2)C1 (configuration not stated) | nt | nt | -1 | -2.7 | nt
CCCCC(=O)N1CCCC(C)C1 (configuration not stated) | nt | nt | 10 | -1.0 | 2%
Cc1ccc(S(=O)c2ccc(C)cc2)cc1 | -36 | -4 | 10 | -1.3 | 3%
CCN(CC)CCOC(=O)C(Cc1cccc2ccccc12)CC1CCCO1 (configuration not stated) | nt | nt | 1 | 0.8 | nt
Cc1ccc2c(CN(C)Cc3cccc(F)c3)cc(=O)oc2c1 | nt | nt | 3 | 4.5 | nt

13 compounds out of the list, ordered by heavy-atom count, lowest first:
SMILES | YopH inh | Arbovirus inh | Mtb betalactam | RecA splice inh | Mtb H37Rv | others
CCCCC(=O)N1CCCC(C)C1 (configuration not stated) | nt | nt | 10 | -1.0 | 2%
Cc1ccc(S(=O)c2ccc(C)cc2)cc1 | -36 | -4 | 10 | -1.3 | 3%
O=C1CC(=O)C(n2cncn2)C(c2ccc(Cl)cc2)C1 (configuration not stated) | -44 | 3 | 6 | -0.2 | 0%
Cc1c(C(=O)NCCCn2ccnc2)oc2ccccc12 | nt | -1 | -3 | 3.7 | 3%
CCC(C)c1c(O)nc(SCC(=O)Nc2ccccc2)[nH]c1=O (configuration not stated) | -33 | 2 | -1 | -1.0 | -5%
CC1CCN(C(=O)Cn2nnc(-c3ccc([N+](=O)[O-])cc3)n2)CC1 | nt | nt | 4 | -2.6 | nt
COc1cc(Cl)ccc1OCc1cc(C(=O)N(C)C2CCOC2)no1 (configuration not stated) | nt | nt | -1 | 0.4 | nt
CC1CCCN(C(=O)NC2CC(=O)N(c3ccc4c(c3)OCCO4)C2)C1 (configuration not stated) | nt | nt | -1 | -2.7 | nt
Cc1nn(C(=O)N2CCOCC2)c(C)c1CN1C(=O)c2ccccc2C1=O | -29 | nt | 0 | nt | 3%
CCN(CC)CCOC(=O)C(Cc1cccc2ccccc12)CC1CCCO1 (configuration not stated) | nt | nt | 1 | 0.8 | nt
CS(=O)(=O)Nc1ccc(C2=NN(C(=O)c3ccco3)C(c3cccc(F)c3)C2)cc1 (configuration not stated) | nt | -8 | 3 | 0.9 | 4%
CCC1CCCCN1CCCNC(=O)Cn1ncn2nc(-c3ccc(OC)cc3)cc2c1=O (configuration not stated) | nt | nt | ? | -4.0 | nt
COCCNC(=O)C(=O)NCC(c1ccc2c(c1)OCO2)N1CCN(c2ccc(F)cc2)CC1 (configuration not stated) | nt | nt | 6 | 0.1 | nt

(more compounds)
SMILES | YopH inh | Arbovirus inh | Mtb betalactam | RecA splice inh | Mtb H37Rv | others
COc1ccccc1C(=O)N1CC(=O)Nc2ccc(C)cc2C1c1ccc(F)cc1 (configuration not stated) | nt | nt | 1 | 4.0 | nt
COc1ccc(OC)c(NC(=O)C2CCN(S(C)(=O)=O)CC2)c1 | -2 | 1 | 9 | 1.5 | 2%
CC1=C(C(=O)NCc2ccccn2)C2(CCC(C)CC2)OC1=O (configuration not stated) | -35 | 2 | -8 | 0.2 | nt
CC(C)=CC(=O)OCC(=O)Nc1ccc(Cl)cn1 | -25 | -3 | -20 | -5.0 | -4%
COCCSc1nnc(NC(=O)C2CCN(C(=O)c3ccco3)CC2)s1 | nt | nt | 3 | -0.8 | nt
CC(=O)Cn1ncc(Br)c(Br)c1=O | nt | -27 | nt | 11 | 68%
COc1ccccc1N1CCN(C(c2cccs2)c2nnnn2C2CCCC2)CC1 (configuration not stated) | -2 | -12 | 4 | 5.7 | 0%
N=C1S/C(=C\c2ccco2)C(=O)N1c1ccc2c(c1)OCO2 | nt | -11 | -4 | -1.6 | 4%
COc1ccc(S(=O)(=O)N2CCCCCC2)cc1NC(=O)c1ccccc1 | nt | nt | 1 | 1.4 | nt
Oc1c(C=C2N=c3ccccc3=N2)sc(=S)n1-c1ccccc1 | -28 | 7 | 0 | -4.8 | 5%
CCN(CC(=O)Nc1c(F)cccc1F)C(=O)c1cc([N+](=O)[O-])ccc1N1CCCCC1 | nt | nt | -8 | 7.5 | nt
CC1CCCCN1CC(O)c1c[nH]c2ccccc12 (configuration not stated) | nt | nt | -8 | 0.6 | nt
O=C(CN1C(=O)S/C(=C\c2cccs2)C1=O)Nc1ccc(O)cc1C(=O)O | nt | nt | -1 | 3.7 | nt
COc1ccccc1N1CCN(C(=O)C(=O)c2cn(CC(=O)N3CCCC3)c3ccccc23)CC1 | nt | nt | -1 | -4.9 | nt
CC1=C(C(=O)OC(C)C)C(c2ccc3c(c2)OCO3)NC(=O)N1 (configuration not stated) | nt | nt | -3 | 0.9 | nt
CCOc1ccc(-c2cc(CCCC(=O)N3CCN(c4ccc(OC)cc4)CC3)no2)cc1 | -25 | 7 | -1 | 1.6 | 8% | Arbovirus inh repeat=-6
O=C(c1ccc(S(=O)(=O)N2CCC(c3nc4ccccc4[nH]3)CC2)cc1)N1CCOCC1 | -31 | -1 | -3 | 0.3 | 2%
Nc1nc(SCc2c(Cl)cccc2Cl)n[nH]1 | -1 | 1 | 5 | 0.8 | -1%
C/C(=N\NC(=O)c1c(Cl)cnn1C)c1ccc(NC(=O)c2ccncc2)cc1 | -31 | 4 | 3 | -1.3 | 2%
Cc1ccc(-n2c(C)nc3c(cnn3-c3ccccc3Cl)c2=O)cc1C | -14 | 0 | 4 | 2.1 | -4%
COc1ccc(C(=O)N(Cc2nc(-c3ccc(C)cc3)no2)C2CCCCC2)cc1OC | -35 | -25 | 8 | 9.4 | 3%
Cc1cc(C(F)(F)F)nn1CC(=O)Nc1ccc(Br)c2cccnc12 | -26 | -4 | 3 | 2.3 | -3%
Cc1ccc(NC(=O)N2CCN(C(=O)C3CCCO3)CC2)cc1 (configuration not stated) | nt | nt | -17 | -1.8 | nt
CCOC(=O)c1[nH]c(C)c(C(=O)OCC(=O)NC2CCS(=O)(=O)C2)c1C (configuration not stated) | nt | nt | -9 | -1.3 | nt
CCCCNC(=O)CCNC(=O)c1ccc(C(C)(C)C)cc1 | -18 | -1 | -7 | -7.1 | 1%

Next section
SMILES | YopH inh | Arbovirus inh | Mtb betalactam | RecA splice inh | Mtb H37Rv | others
COc1ccc(-c2csc(NC(=O)CS(=O)(=O)c3ccccc3)n2)cc1 | nt | nt | -3 | 8.2 | nt
CCC(=O)c1ccc(OCc2ccc(C#N)cc2)cc1 | nt | -3 | -5 | 2.0 | -4%
Cc1nc(=O)c(-c2ccccc2)c(C)n1-c1ccc(S(N)(=O)=O)cc1 | -16 | 1 | -11 | -1.7 | -17%
CCCN1C(=O)C(O)(C2COC(C)(C)CC2=O)c2ccccc21 (configuration not stated) | nt | -18 | -1 | -1.2 | -1%
S=C(Nc1cccc2ccccc12)N1CCN(c2ncccn2)CC1 | 7 | -6 | -9 | 2.7 | 4%
COc1ccc(NC(=O)/C(=C\c2ccc(OC)c(OC)c2)NC(=O)c2ccco2)cc1 | nt | nt | -2 | -0.4 | nt
CCN(c1cc(C)cc(C)c1)S(=O)(=O)c1nnc(NC(=O)C(C)C)s1 | nt | nt | -1 | -2.1 | nt
CN(C)CCNC(=O)c1cccn(Cc2cccc(C(F)(F)F)c2)c1=O | nt | 9 | -7 | -5.5 | 1%
N#Cc1cc(Oc2cccc3cccnc23)c(-n2nnc3ccccc32)cc1C#N | -12 | -26 | 95 | 7.3 | 9%
Cc1ccc(C)n1-c1ccc(C(=O)O)cc1 | 13 | 22 | -5 | -0.6 | -2%
O=C(Nc1ccccc1)OC1CCS(=O)(=O)C1 (configuration not stated) | -7 | 3 | -2 | 7.3 | 2%
CCCP(=O)(CCC)CCP(=O)(c1ccccc1)c1ccccc1 | -7 | -2 | -3 | -1.7 | -7%
CCN(CC)CCCNC(=O)c1oc2ccc3c(c2c1C)C(O)CC(C)(C)O3 (configuration not stated) | nt | nt | -5 | -1.4 | nt
CSc1nc2c(ccc3ccccc32)o1 | 2 | -1 | 7 | 4.4 | -4%
COc1ccc(CC(=O)OCC(=O)N2CCCC(C)C2)cc1 (configuration not stated) | nt | nt | -3 | 2.3 | nt
Cc1ccc(O)c(C(=O)c2cnc3c(c2)CN(C)C(=O)N3)c1 | -4 | -7 | 55 | 3.9 | 5%
Cc1cc2nsnc2c(S(=O)(=O)N2CCN(C)CC2)c1C | nt | nt | 1 | 0.2 | nt
O=C(NC1CCCCC1)c1ccc2c(c1)S(=O)(=O)c1ccccc1C2=O | nt | nt | -3 | -2.9 | -10%
Nc1ccc(NC(=O)c2ccc(C(=O)Nc3ccc(N)cc3)cc2)cc1 | nt | nt | 7 | 0.2 | -4%
CC(O)Cc1nsc(NC(=O)c2cccs2)n1 (configuration not stated) | -29 | 5 | -6 | -2.0 | 6% | Arbovirus inh repeat=3
O=C(NC1CC1)c1cc2ccccc2o1 | nt | nt | -9 | -0.2 | nt
CCc1cc(C(=O)N2CCN(C(=O)c3ccco3)CC2)sc1C | nt | nt | -4 | -0.6 | nt
O=C(Nc1cnn(Cc2c(Cl)cccc2Cl)c1)c1ccc([N+](=O)[O-])cc1 | -19 | -3 | -3 | -1.2 | -6%
Cc1cccc(CC(=O)NCCS(=O)(=O)N2CCN(c3cccc(Cl)c3)CC2)c1 | nt | nt | -5 | 6.0 | nt
COc1cc2c(cc1NC(=O)CN1CCN(S(=O)(=O)c3ccc(C)cc3)CC1)oc1ccccc12 | 0 | -5 | -7 | -4.0 | nt
Nc1ncnc2c1ncn2[C@@H]1O[C@H](CO)C[C@@H]1O | nt | 9 | -3 | -1.2 | -3%&-2%
CN1CCN(C(=S)NC(=O)c2cccc(S(=O)(=O)N(C)C)c2)CC1 | nt | 4 | -1 | -9.2 | 7%
Cc1ccc(NC(=S)N2CCCCC2CO)cc1C (configuration not stated) | nt | 4 | -8 | -0.6 | -7%
Cc1ccc(Cn2cc(/C=C/C(=O)O)c(-c3ccccc3)n2)cc1 | -130 | 6 | -12 | 2.4 | 9%
CC(C)NS(=O)(=O)c1ccc(OCC(=O)N2CCc3ccccc3C2)cc1 | nt | 5 | 3 | -0.6 | 0%
